# GIRK2 activ: activators of human GIRK2 potassium channels | P48051 | HEK293-GIRK2 thallium flux, Thallos fluorescence | calls only for hits at 25 µM | actives 0.05% (n = 63,000) | AID 1259325;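 active = among the strongest 0.2% of first-round signals and kept after retests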;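 note: first round at about 10 µM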
# Target sequence (P48051 whole entry, looked up): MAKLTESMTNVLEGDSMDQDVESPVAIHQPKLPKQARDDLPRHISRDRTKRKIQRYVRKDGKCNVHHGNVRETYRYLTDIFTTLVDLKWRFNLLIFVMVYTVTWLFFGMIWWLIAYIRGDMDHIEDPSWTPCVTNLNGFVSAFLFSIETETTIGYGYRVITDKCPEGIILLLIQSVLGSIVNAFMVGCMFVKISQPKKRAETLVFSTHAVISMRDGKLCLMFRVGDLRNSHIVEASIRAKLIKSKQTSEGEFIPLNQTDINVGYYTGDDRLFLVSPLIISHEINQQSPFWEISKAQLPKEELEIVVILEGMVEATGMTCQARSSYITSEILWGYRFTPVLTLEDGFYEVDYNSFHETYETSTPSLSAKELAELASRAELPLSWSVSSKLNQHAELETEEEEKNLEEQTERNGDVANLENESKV
# Calls only; i = inactive. An excerpt, so the mix of outcomes need not match the whole.
canonical_smiles,GIRK2 activ
C=C[C@H]1[C@H](O[C@@H]2O[C@H](CO)[C@@H](O)[C@H](O)[C@H]2O)OC=C(C(=O)OC)[C@H]1C[C@@H]1N[C@H](C(=O)O)Cc2c1[nH]c1ccccc21,i
COc1cc(OC)cc(-c2noc(-c3nn(-c4ccc(F)cc4)c(=O)c4ccccc34)n2)c1,i
COc1ccc(NC(=O)c2c(O)c3cnn(Cc4ccccc4)c3[nH]c2=O)cc1,i
CC(C)C(=O)NCCCS(=O)(=O)N1CCN(c2ccccc2)CC1,i
Cn1cc(C2=C(c3cn(CCCCN)c4ccccc34)C(=O)NC2=O)c2ccccc21,i
COc1ccc(NC(=O)C(=O)NCc2ccc(Cl)cc2)cc1OC,i
O=C(NCCCn1ccnc1)c1cc2n(n1)CCCO2,i
Cc1ccc(Cl)c2sc(N(Cc3ccncc3)C(=O)c3ccco3)nc12,i
C=CCOCC(O)Cn1c(Br)nc2c1c(=O)n(C)c(=O)n2C (stereo not given),i
O=C(CSc1ncc(CO)n1Cc1ccccc1)Nc1ccc(Cl)c(Cl)c1,i
O=C(COc1ccccc1)N1CCC(c2nnc(-c3ccco3)s2)CC1,i
Cc1nn(-c2ncc(NC(=O)/C=C/c3ccco3)cn2)c(C)c1C,i
CCCCCC/C=C/C=C\CCCCCCCC,i
COc1ccc(-c2nc(CSc3nc4ccccc4n4c(C)nnc34)c(C)o2)cc1OC,i
COc1ccc(CCNC(=O)Nc2ccc(CN3CCN(c4ccccn4)CC3)cc2)cc1,i
COC(=O)N1CCc2ccccc2C1C(=O)N1CCN(C(=O)C2CCCO2)CC1 (stereo not given),i
O=C(c1cc(Cl)sc1Cl)N(CC1CCCO1)c1nc2c(F)cccc2s1 (stereo not given),i
Cc1ccc2c(c1)C(=O)OC(C)(C(=O)Nc1ccc(C(=O)O)cc1)C2 (stereo not given),i
CN(C)C(CNS(C)(=O)=O)c1ccc2c(c1)CCO2 (stereo not given),i
CN(C)C(=O)Cn1c(N(C)C)nc2c1c(=O)[nH]c(=O)n2C,i
Cc1ccc(CNc2ncnc3[nH]ncc23)o1,i
COc1ccc(NC(=O)c2cc3cc(Br)cc(OC)c3oc2=O)cc1,i
Nc1nc(SCC(=O)c2cccc(Cl)c2)n[nH]1,i
CCn1c(SCC(=O)c2ccc(C)cc2)nc2c1c(=O)n(C)c(=O)n2C,i
COC(=O)c1ccc2c(=O)n(-c3ccc(F)c(Cl)c3)c(N3CCN(C)CC3)nc2c1,i
COCC1CCCN(C(=O)NCc2ccccc2)C1 (stereo not given),i
COc1ccc(C=O)cc1Cn1c(=O)n(CCCCC(=O)NC2CCCCC2)c(=O)c2ccccc21,i
CCCc1nc2c(C)cc(-c3nc4ccccc4n3C)cc2n1Cc1ccc(-c2ccccc2C(=O)O)cc1,i
Nc1nnc(SC(C(=O)O)c2ccccc2)s1 (stereo not given),i
Cc1ccc(NC(=O)Cn2cc(S(=O)(=O)N3CCCCC3)ccc2=O)cc1C,i
O=C(CSc1ccc(F)cc1)NCc1cc(-c2cccs2)n(C2CCCC2)n1,i
O=C(NCc1cccs1)C1CCN(c2ncnc3c2sc2ncccc23)CC1,i
COC(=O)c1ccc(Oc2c(C)oc3cc(OC(=O)c4ccco4)ccc3c2=O)cc1,i
CC(C)C(NC=O)C(=O)OCC(O)C(O)C(O)C(O)COC(=O)C(NC=O)C(C)C (stereo not given),i
COc1cccc(CNC(=O)CSc2ncc(-c3ccc(Br)cc3)o2)c1,i
CC1CCN(Cc2cc(=O)oc3cc4c(cc23)CCC4)CC1,i
O=C(Oc1ccc2c(=O)c(-c3ccccc3)coc2c1)c1cccs1,i
COc1ccc(F)cc1S(=O)(=O)NCCc1csc(-c2ccc(C)cc2)n1,i
CCCCn1c(C(C)(C)C)cn2c3c(=O)n(C)c(=O)n(C)c3nc12,i
COc1cc(Cc2cnc(N)nc2N)cc(OC)c1OC,i
COc1ccc(S(=O)(=O)N2CCCOC2CNC(=O)C(=O)NCCO)cc1OC (stereo not given),i
CC(C)S(=O)(=O)N1CCC(C(=O)NCC(F)(F)F)CC1,i
Cc1cc(Nc2ccc(F)cc2)nc2nn(CCc3ccccc3)c(=O)n12,i
O=C(Cc1cccc2ccccc12)Nc1ccccc1-c1ccc(=O)[nH]n1,i
Cc1cc(CCNC(=O)COc2ccccc2F)on1,i
COc1cccc(C(=O)N2CCN(c3oc(/C=C/c4ccccc4)nc3C#N)CC2)c1,i
CCOc1ccc(C(=O)Nc2ccc(-c3cn4nc(OC)ccc4n3)cc2)cc1OCC,i
O=C(NC(C(=O)N1CCN(C(=O)c2ccco2)CC1)S(=O)(=O)c1ccccc1)c1ccco1 (stereo not given),i
COc1cccc(C2NC(=O)NC(C)=C2C(=O)Nc2ccccc2F)c1 (stereo not given),i
COCCn1c(=O)c2c(nc3n2CCCN3CCc2ccccc2)n(C)c1=O,i

# Reformatted as labelled records: part of the list above
smiles: O=C(Cc1cccc2ccccc12)Nc1ccccc1-c1ccc(=O)[nH]n1
  GIRK2 activ: i
smiles: COc1ccc(-c2nc(CSc3nc4ccccc4n4c(C)nnc34)c(C)o2)cc1OC
  GIRK2 activ: i
smiles: Nc1nc(SCC(=O)c2cccc(Cl)c2)n[nH]1
  GIRK2 activ: i
smiles: COc1ccc(NC(=O)c2cc3cc(Br)cc(OC)c3oc2=O)cc1
  GIRK2 activ: i

# Carrying on.
canonical_smiles,GIRK2 activ
Cc1cccc(Oc2nccn3c(=O)n(CC(=O)NCc4ccccc4Cl)nc23)c1C,i
O=C(NCc1cccc(Br)c1)c1c(O)c2cccnc2[nH]c1=O,i
Cc1ccc(C(C)NC(=O)c2nnn(-c3ccccc3)c2C)cc1 (stereo not given),i
COc1ccccc1N1CCN(C(=O)c2ccc3c(=O)n4c(nc3c2)SCCC4)CC1,i
CNS(=O)(=O)c1ccc(C(=O)NCCOC)o1,i
CCCCN1C(=O)CCc2cc(NC(=O)c3cc(OC)cc(OC)c3)ccc21,i
O=c1cc(-c2ccc(Cl)cc2)oc2ccc(Cl)cc12,i
O=C(O)c1ccccc1C(=O)c1ccc(F)cc1,i
CCc1c(C)nc(SCc2nc(-c3ccccc3OC)no2)[nH]c1=O,i
C[C@@H]1C[C@H]2[C@@H]3CCC4=CC(=O)C=C[C@]4(C)[C@@]3(F)[C@@H](O)C[C@]2(C)[C@H]1C(=O)CO,i
CCOc1cc(NC(=O)C(C)C)c(OCC)cc1NC(=O)c1ccccc1,i
COc1ccc(CNC(=O)Cn2nc3c(N4CC(C)CC(C)C4)nccn3c2=O)cc1 (stereo not given),i
COc1ccc(C2CC(c3ccc(OC)c(OC)c3)=NN2S(C)(=O)=O)cc1O (stereo not given),i
Cc1cc(N2C(=O)C(O)=C(C(=O)c3ccc(C)o3)C2c2cccc(Br)c2)no1 (stereo not given),i
Cc1cc(C)nc(NC(=O)c2cccc(S(=O)(=O)N3CCCCC3)c2)n1,i
CCCN1CCN(C(=O)c2cn(-c3ccc(-c4nc(C(C)(C)C)no4)cn3)cn2)CC1,i
CC12CC3CC(C)(C1)CC(C(=O)NCc1ccccn1)(C3)C2,i
C#CCCNC(=O)NC(C)(C)C,i
Cc1ccc(CNC(=O)Cn2cc(S(=O)(=O)N3CCOCC3)ccc2=O)cc1,i
COc1cccc(CNC(=O)c2cn(-c3cccc(F)c3)nn2)c1,i
COc1ccc(-c2c(C(F)(F)F)oc3c4c(ccc3c2=O)OCN(Cc2cccnc2)C4)cc1,i
O=C(NCc1ccc(C(O)c2cccs2)s1)c1ccoc1 (stereo not given),i
CN(C)c1cccc(C(=O)N2CCC(CSCc3ccco3)CC2)c1,i
COc1ccc(/C=C/C(=O)Nc2ccc(-n3nnc(C(=O)NC4CC4)n3)cc2)cc1OC,i
Cc1ccc(Cl)cc1N1CCN(C(=O)CCn2c(=S)[nH]c3cc4c(cc3c2=O)OCO4)CC1,i
COc1ccc2c(c1)c(CC(=O)NCc1ccc(F)cc1)c(C)n2C(=O)c1ccc(Cl)cc1,i
CCOC(=O)C1CCc2sc(NC(=O)c3cc(-c4cccs4)[nH]n3)nc21 (stereo not given),i
Cc1nnsc1C(=O)NCC(Cc1cccc(F)c1)n1cccc1 (stereo not given),i
Cc1ccc(S(=O)(=O)c2cnc(SCC(=O)NCc3ccccc3)[nH]c2=O)cc1Cl,i
COCCCNC(=O)c1c(N)n(/N=C\c2ccccc2)c2nc3ccccc3nc12,i

# Reprinted at random: 6 compounds from above.
canonical_smiles,GIRK2 activ
CN(C)c1cccc(C(=O)N2CCC(CSCc3ccco3)CC2)c1,i
O=C(NCc1ccc(C(O)c2cccs2)s1)c1ccoc1 (stereo not given),i
Cc1ccc(Cl)cc1N1CCN(C(=O)CCn2c(=S)[nH]c3cc4c(cc3c2=O)OCO4)CC1,i
COc1ccc(-c2c(C(F)(F)F)oc3c4c(ccc3c2=O)OCN(Cc2cccnc2)C4)cc1,i
COc1ccc2c(c1)c(CC(=O)NCc1ccc(F)cc1)c(C)n2C(=O)c1ccc(Cl)cc1,i
CCOC(=O)C1CCc2sc(NC(=O)c3cc(-c4cccs4)[nH]n3)nc21 (stereo not given),i

# (list continues)
canonical_smiles,GIRK2 activ
Cc1cc(Cl)cc2sc(N(CCN3CCOCC3)C(=O)c3c(F)cccc3Cl)nc12,i
COCCN(Cc1ccsc1)C(=O)C(C)(C)C,i
CCOc1ccc(C(=O)N2CCN(c3oc(-c4ccccc4)nc3C#N)CC2)cc1,i
COc1ccc(NC(=O)c2sccc2S(=O)(=O)N(C)c2ccc(F)cc2)cc1OC,i
O=C(Nc1ccc(SCCCC(=O)N2CCC(Cc3ccccc3)CC2)nn1)C1CC1,i
O=C(NCC1CCN(C(=O)c2ccoc2)CC1)C(=O)Nc1ccccc1Cl,i
O=S(=O)(NCCNc1cc(-n2cccc2)ncn1)c1ccc2c(c1)OCCO2,i
COc1ccc(CCNC(=O)C(C#N)c2nc3ccccc3nc2N2CCCCC2)cc1 (stereo not given),i
COc1nn(C)cc1C(=O)NCc1cnn2ccccc12,i
O=C(NCCC1CCCCN1S(=O)(=O)c1cccs1)c1cnccn1 (stereo not given),i
O=C(CSc1ccc(F)cc1)NCC1(c2cccs2)CC1,i
COc1ccc(-c2nc3cc(F)ccc3s2)cc1OC,i
Cc1nc(C)c(-c2nnc(NC(=O)c3ccc4ccccc4n3)o2)s1,i
COc1ccccc1-c1csc(-c2nnn(-c3ccc(F)c(Cl)c3)c2N)n1,i
CCc1ccc(S(=O)(=O)NCCNC(=O)c2ccc(NC(=O)C(C)(C)C)cc2)cc1,i
Cn1nccc1C(=O)N1CC(Oc2nc3c(Cl)cccc3s2)C1,i
COc1ccc(CC(=O)NCC2(CO)CC2)cc1OC,i
COc1ccc(-c2nc(C(=O)N3CCN(C)CC3)sc2-c2ccc(OC)cc2)cc1,i
COc1ccc(C(=O)N2CCN(c3oc(/C=C/c4ccccc4OC)nc3C#N)CC2)cc1,i
O=C(Nc1ccccc1F)N1CC(Oc2nc3c(Cl)cccc3s2)C1,i
COc1ccc(C(=O)NCCn2ncccc2=O)c(OC)c1,i
COc1cc(C2NC(=O)NC(C)=C2C(=O)OC(C)C)ccc1OC(F)F (stereo not given),i
COc1ccc(S(=O)(=O)N2CCC(c3ccccc3)C2)c(C)c1 (stereo not given),i
CSc1ccc(CNC(=O)C2CCN(c3ncccc3-c3nc(-c4ccccc4)no3)CC2)cc1,i
O=C(COc1ccccc1Cl)Nc1cc(N2CCN(Cc3ccccc3)CC2)ncn1,i
Cc1c(C)n2c3c(=O)n(CC(C)C)c(=O)n(C)c3nc2n1Cc1ccco1,i
O=C(CCSc1nnc2scc(-c3ccccc3)n12)Nc1ccc(F)cc1,i
Cc1ccc2nc(C3CN(C(=O)Nc4cccs4)C3)[nH]c2c1,i
CN(C)c1ncc(NC(=O)c2ccc3c(c2)OCO3)cn1,i
Cc1ccc(NC(=O)COc2cc(C)nc(N3CCCCC3)n2)c(Br)c1,i
CCOc1ccc(-c2ncncc2-c2ccccc2OC)c(O)c1,i
COc1ccc(-c2ccc(=O)n(Cc3nc(-c4ccc(Cl)cc4)no3)n2)cc1,i
Cc1ccc(Cn2c(=O)n(CC3CCC(C(=O)N4CCOCC4)CC3)c(=O)c3sccc32)cc1 (stereo not given),i
O=C(CSc1nccnc1N1CCSCC1)Nc1ccc(F)cc1Cl,i
O=C(NCCC(O)c1ccoc1)C(=O)Nc1ccon1 (stereo not given),i
CCOc1cccc(CNC(=O)C2CCN(c3ncccc3-c3nc(-c4ccccc4)no3)CC2)c1,i
CCOc1ccc(NC(=O)Cn2nc3ccc(Sc4cccc(F)c4)nn3c2=O)cc1,i
COc1ccc(CCNC(=O)C2CCN(c3ncnc4c3sc3ncccc34)CC2)cc1OC,i
Cc1ccccc1OCC(=O)Nc1ccnc2cc(C(F)(F)F)ccc12,i
O=C(/C=C/c1cccs1)NCC1CCN(C(=O)c2ccoc2)CC1,i
COC(=O)c1sc2ccccc2c1NC(=O)C1CCN(S(=O)(=O)c2ccc(F)cc2)CC1,i
Cc1cc(C)c2nc(C)cc(NC(=O)c3cccs3)c2c1,i
Cc1ccccc1C(=O)N1CCCC(c2nnc(C(F)(F)F)o2)C1 (stereo not given),i
CCc1noc(-c2ccc(=O)n(CC(=O)Nc3ccc(C)cc3)c2)n1,i
CC(C)CCNC(=O)c1ccc(Oc2nccnc2N2CCC(C)CC2)cc1,i
Cc1cccc(CC(=O)NCc2cnn3ccccc23)c1,i
Cc1ccc(C2C(=C(O)c3cnn(-c4ccccc4)c3C)C(=O)C(=O)N2CCCN(C)C)o1 (stereo not given),i
CCOc1cc(/C=C2\SC(=S)N(c3ccccc3)C2=O)ccc1O,i
CCc1c(C)nc(-n2nc(C3CC3)cc2NC(=O)CCc2ccccc2)[nH]c1=O,i

# Source: PubChem BioAssay (Vanderbilt University)
